Screening data: PubChem BioAssay, ICCB-Longwood Screening Facility, Harvard Medical School
BmaI1 – BmaI1 acyl-homoserine lactone synthase inhibition – biochemical, fluorescence intensity, with counterscreen (AID 720554); BmaI1 enzyme assay, fluorescence intensity; active compounds read high; test concentration not given here; a few actives read low; strong numbers were not always called active; inhibition, %; actives 0.4% (n = 12,000);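 active = both replicates within 2 robust z-scores of the inhibited control and a quiet counterscreen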;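 note: 0% = uninhibited enzyme and 100% = inhibited control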
BmaI1 counterscreen – recorded beside BmaI1, whose call it bears; inhibition, %; measured here: counterscreen; design of the counterscreen not given here;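 first of two replicates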
* = called active by the depositor. Only part of the results is shown; count on the stated rates, not on these rows.

SMILES	BmaI1	BmaI1 counterscreen
CC(O)Cn1c(=S)[nH]c2ccc(Br)cc2c1=O (centres undefined)	20	18
CN(C)S(=O)(=O)c1cccc(C(=O)Nc2nnc(Cc3ccccc3)s2)c1	16	8
COCC(C)n1c(C)cc(C(=O)CSc2ccc(NC(C)=O)cc2)c1C (centres undefined)	2	1
CCOC(=O)C(Sc1nnnn1-c1ccc(Cl)cc1)c1ccccc1 (centres undefined)	6	1
c1ccc2c(c1)oc1c(NCCCCNc3ncnc4c3oc3ccccc34)ncnc12	9	0
Cc1ccc(-n2nnnc2SCc2nc3sc4c(c3c(=O)[nH]2)CCCC4)c(C)c1	15	5
c1ccc2c(c1)OCC(CSc1nc3ccccc3s1)O2 (centres undefined)	32	10
CCCCn1c(SCC(=O)NCC)nc2cc(S(=O)(=O)N3CCCCC3)ccc21	14	7
CC1=C(/C=C/C(C)=C/C=C/C(C)=C\C(=O)O)C(C)(C)CCC1	-9	-3
CCCN1C(=O)/C(=N\OCC(=O)Nc2ccc(S(=O)(=O)N3CCOCC3)cc2)c2ccccc21	10	3
N#Cc1nc(-c2ccccc2)oc1NCC1CCCO1 (centres undefined)	52	29
COCCNCc1cc(C)ccc1OC	-2	-1
N#Cc1ccc(NC(=O)CON2C(=O)CCC2=O)cc1Cl	-2	0
O=S(=O)(/C=C/c1ccccc1)N1CCN(Cc2nnc(-c3ccccc3)o2)CC1	-2	-5
Cc1cc(C(=O)COC(=O)c2cnccn2)c(C)n1-c1ccc2c(c1)OCO2	8	-2
CC1CCCC(C)N1C(=O)COC(=O)COc1ccc(C#N)cc1 (centres undefined)	6	4
CCOc1ccc(CN(C)C(=O)CNC(C)c2ccccc2OC)cc1 (centres undefined)	8	0
CCOC(=O)c1oc2ccccc2c1CN(C)Cc1ccccc1F	-18	-1
COc1ccc(CNC(=O)COc2ncnc3c2cnn3-c2ccccc2)cc1	0	4
COc1ccccc1NC(=O)CN(Cc1ccco1)C(=O)/C=C/c1ccc(C)o1	22	8
Cc1c(C(=O)OC(C)C(=O)N(C)Cc2ccccc2)oc2ccccc12 (centres undefined)	10	2
CCOC(=O)c1oc2ccccc2c1CSc1nnc(Cc2cccs2)n1CCc1ccccc1	6	2
N#C/C(=C(/O)Cn1nc(C(=O)O)c2ccccc2c1=O)c1nc2ccccc2s1	16	4
C/C(=N\NC(=O)C1CC1)c1ccc(S(=O)(=O)N2CCCC2)cc1	-1	0
Nc1nc2ccc(Cl)cc2c2nc(-c3ccco3)nn12	2	8
Cc1nc2ccccn2c1C(=O)NN=C1CCCC1	30	7
COc1ccc(OC)c(NC(=O)COC(=O)c2ccc(S(=O)(=O)N3CCOCC3)cc2)c1	-3	0
NC(=O)Cn1c(NCc2ccccc2)nc2ccccc21	22	14
O=C(Cc1coc2cc(O)ccc12)OCC(=O)N1CCCC1=O	56	48
CN(Cc1ccc(Cl)s1)Cn1c(=O)oc2ccccc21	10	9
COc1cccc(NC(=O)c2ccccc2S(C)(=O)=O)c1	13	8
CCCCCOc1ccc(C2N=C(N)Nc3nc4ccccc4n32)cc1 (centres undefined)	26	61
NC(=O)COC(=O)c1ccc2c(c1)C(=O)N(Cc1ccco1)C2=O	7	-8
CCCCn1c(N)c(N2CCOCC2)c(=O)n(CC(=O)NCCc2ccccc2)c1=O	8	5
O=C(CN1CCN(S(=O)(=O)/C=C/c2ccccc2)CC1)NC1CCCc2ccccc21 (centres undefined)	6	-8
Cc1ccccc1Nc1nc(N)nc(COC(=O)COc2ccc(C#N)cc2)n1	-4	2

Some of the entries above, set out differently.
Values run as follows: BmaI1	BmaI1 counterscreen
- Cc1cc(C(=O)COC(=O)c2cnccn2)c(C)n1-c1ccc2c(c1)OCO2
→ 8	-2
- CC1CCCC(C)N1C(=O)COC(=O)COc1ccc(C#N)cc1 (centres undefined)
→ 6	4
- CCOc1ccc(CN(C)C(=O)CNC(C)c2ccccc2OC)cc1 (centres undefined)
→ 8	0
- CCOC(=O)c1oc2ccccc2c1CN(C)Cc1ccccc1F
→ -18	-1
- COc1ccc(CNC(=O)COc2ncnc3c2cnn3-c2ccccc2)cc1
→ 0	4
- COc1ccccc1NC(=O)CN(Cc1ccco1)C(=O)/C=C/c1ccc(C)o1
→ 22	8
- Cc1c(C(=O)OC(C)C(=O)N(C)Cc2ccccc2)oc2ccccc12 (centres undefined)
→ 10	2
- CCOC(=O)c1oc2ccccc2c1CSc1nnc(Cc2cccs2)n1CCc1ccccc1
→ 6	2
- N#C/C(=C(/O)Cn1nc(C(=O)O)c2ccccc2c1=O)c1nc2ccccc2s1
→ 16	4
- C/C(=N\NC(=O)C1CC1)c1ccc(S(=O)(=O)N2CCCC2)cc1
→ -1	0
- Nc1nc2ccc(Cl)cc2c2nc(-c3ccco3)nn12
→ 2	8
- Cc1nc2ccccn2c1C(=O)NN=C1CCCC1
→ 30	7
- COc1ccc(OC)c(NC(=O)COC(=O)c2ccc(S(=O)(=O)N3CCOCC3)cc2)c1
→ -3	0
- NC(=O)Cn1c(NCc2ccccc2)nc2ccccc21
→ 22	14
- O=C(Cc1coc2cc(O)ccc12)OCC(=O)N1CCCC1=O
→ 56	48
- CN(Cc1ccc(Cl)s1)Cn1c(=O)oc2ccccc21
→ 10	9
- COc1cccc(NC(=O)c2ccccc2S(C)(=O)=O)c1
→ 13	8
- CCCCCOc1ccc(C2N=C(N)Nc3nc4ccccc4n32)cc1 (centres undefined)
→ 26	61
- NC(=O)COC(=O)c1ccc2c(c1)C(=O)N(Cc1ccco1)C2=O
→ 7	-8
- CCCCn1c(N)c(N2CCOCC2)c(=O)n(CC(=O)NCCc2ccccc2)c1=O
→ 8	5
- O=C(CN1CCN(S(=O)(=O)/C=C/c2ccccc2)CC1)NC1CCCc2ccccc21 (centres undefined)
→ 6	-8
- Cc1ccccc1Nc1nc(N)nc(COC(=O)COc2ccc(C#N)cc2)n1
→ -4	2

Next part.
SMILES	BmaI1	BmaI1 counterscreen
CCN(CC)c1ccc(NC(=O)C2(c3ccccc3)CC2)cc1	48	-18
COc1ccccc1C(=O)NC(=O)CSc1cccc[n+]1[O-]	16	10
Cc1ccc(S(=O)(=O)CCC(=O)OCc2cccc(S(=O)(=O)N3CCOCC3)c2)cc1	6	8
COc1cccc(NC(=O)c2ccccc2N(C)C(=O)CCC(=O)N2CCC(C)CC2)c1	14	10
COc1ccc(C(=O)n2nc(C)cc2Nc2ccccc2)cc1	15	6
O=C(Cc1ccccc1F)Nc1cc2c(cc1Br)OCCO2	8	12
Cc1cc(C)cc(OCc2nc3cc(S(=O)(=O)N4CCOCC4)ccc3n2CC2CCCO2)c1 (centres undefined)	11	10
C=CCN(CC=C)C(=O)CSc1nc(-c2ccccc2)cn1N	24	10
COc1ccc(CN(Cc2cccs2)C(=O)Cc2cccs2)cc1OC	7	3
N#Cc1ccccc1CSc1nnc(-c2cccs2)n1Cc1ccccc1	22	12
O=C(Nc1ccccc1)c1ccccc1OCc1nnc(-c2cccs2)o1	11	6
Cc1cc(C(=O)CSc2nnc(-c3sc4ccccc4c3Cl)o2)c(C)n1C1CC1	18	12
COc1cccc(-c2nnc(SCC(=O)N3CC(C)OC(C)C3)n2C)c1 (centres undefined)	5	-2
O=C(OCC(=O)C12CC3CC(CC(C3)C1)C2)c1ccc(Br)o1	8	-4
Cc1ccc(NC(=O)CN(C)C(=O)c2ccccn2)cc1	14	10
CN(C)C(=O)CNC(=O)c1ccc(S(=O)(=O)N(C)C)cc1	12	12
CCn1c(SCCOc2ccccc2)nnc1-c1ccco1	22	-2
O=C(O)c1ccc(NN=C2CCCCCC2)cc1	74	-1
O=C(Nc1nccs1)c1oc2ccccc2c1CSc1ncn[nH]1	4	7
O=C(COC(=O)[C@@H]1CCCN1S(=O)(=O)c1ccccc1F)c1ccccc1	6	8
N#Cc1nncn1-c1ncnc2scc(-c3ccc(Cl)cc3)c12	18	11
CN1CCN(c2nc3cc(C(F)(F)F)ccc3n3cccc23)CC1	16	24
CCN1C(=O)C(=C2SC3CS(=O)(=O)CC3S2)SC1=S (centres undefined)	-6	-9
CN(C)c1ccc(N=Cc2ccccc2)cc1	108	39
CCn1c(-c2ccc(C)cc2)cnc1SCC(=O)N1CCN(C(C)=O)CC1	14	8
O=c1oc2ccccc2c(O)c1Cc1cc(Cl)c2cccnc2c1O	14	-3
N#CCCCSc1ncnc2scc(-c3ccccc3)c12	6	-6
CCN(CC)c1nc2ccccc2n(CC(=O)Nc2ccc(F)cc2F)c1=O	8	2
CS(=O)(=O)c1ccc(C(=O)N2CCc3ccccc3C2)cc1	4	6
CN=c1scc(-c2ccc(C)c(C)c2)n1/N=C/c1ccc[nH]1	52	56
CN(CCO)c1ncnc2sccc12	16	10
CC(Oc1ccccc1)C(=O)OCC(=O)N1CCC(c2ccccc2)=N1 (centres undefined)	2	8
CCCn1c(N)c(C(=O)CN(C)Cc2ccccc2)c(=O)[nH]c1=O	-16	-2
CC1(C)C2CC=C(/C=N/NC(=O)c3ccc4c(c3)OCO4)C1C2 (centres undefined)	34	7
CC1(C)Cc2cccc(OCC(=O)OCC(=O)Nc3ccc4c(c3)OCO4)c2O1	6	2
CCN(CC(=O)Nc1ccccc1OC)C(=O)c1ccco1	14	10
Cc1ccc(CNC(=O)c2ccccn2)n1C	12	-2
CC(=O)OCC(=O)C12OC3(CCCC3)OC1CC1C3CCC4=CC(=O)C=CC4(C)C3(F)C(O)CC12C (centres undefined)	11	20
COc1ccc(/C=C/C(=O)ONC2=NCCCCC2)cc1OC	22	7
O=C(NCc1ccco1)c1ccc2c(c1)S(=O)(=O)N=C1CCCCCN12	18	4
N#CC(Cc1ccccc1)Sc1nnc(-c2cccs2)n1Cc1ccccc1 (centres undefined)	24	12
Cn1cnnc1Sc1ccc(Cl)cc1NC(=O)C1CCCCC1	55	-2
CN(C)C=Nc1ccc(OCc2ccccc2)cc1	24	14
O=C1NC2(CCCC2)C(=O)N1Cc1cc(=O)n2ccsc2n1	12	8
CCN1CCN(C(c2ccc(OC)cc2)C(O)C(=O)c2c[nH]c3ccccc23)CC1 (centres undefined)	12	5
O=C(O)CSCc1cccs1	-4	-8
O=C(CC1SC(N2CCCCC2)=NC1=O)Nc1cccc(Cl)c1Cl (centres undefined)	6	0
O=C1NC(c2ccccc2)(C(F)(F)F)N=C2SC3=C(CCCC3)N12 (centres undefined)	9	-2

A different layout for two compounds above.
Molecule | BmaI1 | BmaI1 counterscreen
Cn1cnnc1Sc1ccc(Cl)cc1NC(=O)C1CCCCC1 | 55 | -2
COc1ccc(/C=C/C(=O)ONC2=NCCCCC2)cc1OC | 22 | 7

Continued.
SMILES	BmaI1	BmaI1 counterscreen
CC(Oc1ccc(Br)cc1)C(=O)N=c1sccn1C (centres undefined)	2	-5
Cc1ccccc1-n1c(SCc2c(C)noc2C)nnc1-c1ccncc1	1	-12
CCN(CC)c1ccc(-c2nnc(SC(C)C)n2C)cc1	27	6
CS(=O)(=O)c1ccc2nnn(OCC(=O)Nc3cccc(C#N)c3)c2c1	6	0
CC1CCCC/C1=N/NC(=O)Cn1ccc(C(F)(F)F)n1 (centres undefined)	-58	-69
Cc1cnc(NC(=O)c2cn(-c3ccccc3)nc2-c2cccnc2)s1	10	-6
CC(C)CNC(=O)c1cc2ccccc2oc1=O	8	-2
COc1ccccc1NC(=O)Cc1noc(COC(=O)c2ccc(C(F)(F)F)cc2)n1	0	1
CC1(C)CC2CC(C)(CN2C(=O)COC(=O)C2=NNC(=O)CC2)C1 (centres undefined)	6	8
O=C(O)C1CCN(C(=O)C2CC2)CC1	16	0
CC(=O)OC1CC(C(=O)O)N(S(=O)(=O)c2ccc(C)cc2)C1 (centres undefined)	10	2
COC(=O)c1cc(COC(=O)C2(c3cccc(F)c3)CCCC2)oc1C	10	3
COC(=O)C1=C(C)Nc2[nH]c(=S)[nH]c(=O)c2C1c1ccccc1 (centres undefined)	26	10
Cc1cc(F)ccc1S(=O)(=O)Nc1ccccc1C(=O)OCC(=O)N1CCCC1=O	-4	-2
CC1CN(c2cc(-c3ccccc3)c3ccccc3n2)CC(C)O1 (centres undefined)	18	4
N#CCC(=O)Nc1ccccc1C(F)(F)F	16	8
Cc1cc(C(=O)CSc2nnc3sc4ccccc4n23)c(C)n1CCc1ccccc1	9	2
Cc1ccc(C(=O)OCCCCN2C(=O)c3ccccc3C2=O)cc1NC(=O)c1ccco1	12	4
O=C(CSc1nc2ccccc2c(=O)n1-c1ccccc1)N1CCC1	-5	-4
COc1ccc(-n2c(=O)c(CCC(=O)NC3CC3)nc3ccccc32)cc1	-4	-6
CCCCCN=C(N)NN=Cc1c[nH]c2ccc(OC)cc12	24	38
COc1cccc(C(=O)Nc2ccccc2N2CCCCC2)c1	-6	-12
CCOc1ncccc1C(=O)OCc1cc(C(=O)OC)c(C)o1	-10	-2
NP1(=O)C=C(c2ccccc2)OC(c2ccccc2)=C1	6	-5
O=C(c1cccc(Cl)c1)N1CCN(S(=O)(=O)c2ccc(Cl)s2)CC1	-33	-2
N#Cc1cccc(OCC(=O)NCC(F)(F)F)c1	-5	-2
Cc1ccc(C)c(S(=O)(=O)N/N=C/c2ccc(N(C)C)cc2)c1	62	22
Cc1ccc(C)c(OC(=O)c2ccc(N3CCCC3=O)cc2)c1C	-4	-9
O=C(CSc1ccccc1C(=O)N1CCN(c2ncccn2)CC1)NC12CC3CC(CC(C3)C1)C2	16	0
CN(C(=O)CSc1nc(N)nc(N)n1)C1CCCc2ccccc21 (centres undefined)	17	1
O=C(CCCn1c(=O)oc2ccccc21)NCCc1ccc2c(c1)OCCO2	16	9
CN(Cc1cccs1)S(=O)(=O)c1cn(C)c(=O)n(C)c1=O	10	1
Cc1csc2nc(CSc3nnc4n3CCCCC4)cc(=O)n12	8	9
COc1cc(OC)cc(C(=O)NCC(=O)N2CC(C)CC(C)C2)c1 (centres undefined)	-10	-10
N#Cc1c(N2CCCC(O)C2)nc(N)c2c(N)nc3c(c12)CC(=O)N3C12CC3CC(CC(C3)C1)C2 (centres undefined)	21	10
C[C@]12CC[C@H]3[C@@H](CCC4=CC(=O)CC[C@@]43C)[C@@H]1CC[C@@H]2O	18	16
Cc1c(C#N)c(NC(=O)CSc2ccc(F)c(Cl)c2)n(Cc2ccco2)c1C	12	4
